High-throughput results as filed in PubChem BioAssay.
KCNQ2 pot – potentiators of rat KCNQ2 potassium channel | O88943 | CHO-K1 KCNQ2, FluxOR thallium flux fluorescence; stronger effect = higher value | B-score at 10 µM | hit rate 0.54% among 310,000;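 active = fluorescence ratio B-score at least 3 SD of library B-scores, with initial fluorescence B-score within 3 SD, cut at about 5.3 in these data; same plate scores as AID 2156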;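 also: B-score of peak minus minimum over baseline fluorescence ratio after K+ and Tl+ stimulus; positive B-score means potentiation of KCNQ2 with more thallium influx and brighter signal; only the inactives scoring about 0 or higher are listed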
Target sequence (O88943 whole entry, looked up): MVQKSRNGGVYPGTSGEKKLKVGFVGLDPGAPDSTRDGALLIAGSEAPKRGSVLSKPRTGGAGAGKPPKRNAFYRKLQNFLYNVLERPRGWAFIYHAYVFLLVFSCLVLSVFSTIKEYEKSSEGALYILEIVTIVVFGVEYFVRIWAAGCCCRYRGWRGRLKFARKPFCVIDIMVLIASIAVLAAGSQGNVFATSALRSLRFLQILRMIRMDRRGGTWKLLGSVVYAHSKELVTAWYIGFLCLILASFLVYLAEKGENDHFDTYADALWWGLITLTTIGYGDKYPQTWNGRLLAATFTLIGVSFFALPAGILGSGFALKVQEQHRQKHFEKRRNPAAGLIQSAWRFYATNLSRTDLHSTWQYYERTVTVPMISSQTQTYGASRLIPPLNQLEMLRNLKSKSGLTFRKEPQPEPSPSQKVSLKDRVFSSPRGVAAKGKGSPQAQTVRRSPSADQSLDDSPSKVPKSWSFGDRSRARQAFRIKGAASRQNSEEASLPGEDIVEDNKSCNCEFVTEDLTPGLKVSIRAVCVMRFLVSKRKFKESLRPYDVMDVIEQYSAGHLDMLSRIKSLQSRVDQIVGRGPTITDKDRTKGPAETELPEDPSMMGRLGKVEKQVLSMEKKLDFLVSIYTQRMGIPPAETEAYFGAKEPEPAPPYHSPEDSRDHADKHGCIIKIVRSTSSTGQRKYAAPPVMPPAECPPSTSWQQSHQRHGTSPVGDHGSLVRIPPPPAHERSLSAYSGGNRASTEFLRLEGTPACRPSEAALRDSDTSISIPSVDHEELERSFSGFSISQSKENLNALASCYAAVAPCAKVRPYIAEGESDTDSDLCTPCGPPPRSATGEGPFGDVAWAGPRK
KCNQ2 pot baseline – further read-out of KCNQ2 pot, marked with its call; B-score; compound at 10 µM; measured here: initial fluorescence intensity artifact check;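 brightness before thallium and not channel activity; 0 = typical well and far values either way flag optical interference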
* = called active by the depositor. This is a subset; count on the stated rates, not on these rows.

Results for COc1ccc(OC)c(NC(=O)CS(=O)(=O)c2ccccc2)c1 ?
KCNQ2 pot: 1.46; KCNQ2 pot baseline: 0.01

Results for CCCC(=O)Nc1ccc2c(c1)nc(CN1CCN(C(C)=O)CC1)n2C ?
KCNQ2 pot: 1.59; KCNQ2 pot baseline: -1.41

Results for COc1ccc(N2C(=O)c3ccc(NC(C)=O)cc3C2=O)cc1 ?
KCNQ2 pot: 0.73; KCNQ2 pot baseline: -1.13

How did FC(F)Sc1ccc(N=C2NN=C(c3ccc4c(c3)OCCO4)CS2)cc1 do in these assays?
KCNQ2 pot: 0.42; KCNQ2 pot baseline: -0.07

What do the screens show for `O=S1(=O)CCC(NC(=S)N2CCCCC2)C1` (configuration not stated)?
KCNQ2 pot: 0.03; KCNQ2 pot baseline: 0.94

How did COc1ccc(CNc2nc(-c3cccnc3)nn2C(=O)C(C)C)cc1 do in these assays?
KCNQ2 pot: 0.09; KCNQ2 pot baseline: -0.86

What do the screens show for `COc1ccc(-n2nc3cc(C)c(NC(=O)c4cccnc4)cc3n2)cc1`?
KCNQ2 pot: 0.46; KCNQ2 pot baseline: -0.38

What do the screens show for `O=C(NCc1cccnc1)C1CCC(c2ccc(Cl)cc2)CC1` (configuration not stated)?
KCNQ2 pot: 1.42; KCNQ2 pot baseline: 0.42

What do the screens show for `Cc1ccc(NC(=O)OCCNC(=O)OC(C)C)cc1`?
KCNQ2 pot: 1.44; KCNQ2 pot baseline: -0.16

How did Nn1c(CSc2ccccn2)nc2ccccc2c1=O do in these assays?
KCNQ2 pot: 0.04; KCNQ2 pot baseline: 0.66

Results for CC(=O)c1c(N2CCOCC2)nc(=O)n(-c2ccccc2)c1C ?
KCNQ2 pot: 0.01; KCNQ2 pot baseline: -2.24

What do the screens show for `Cc1cc(C)c2ccc(=S)[nH]c2n1`?
KCNQ2 pot: 0.71; KCNQ2 pot baseline: -2.01

What do the screens show for `COc1ccc(/C=C2/SC(=S)N(CCCC(=O)Nc3ccc(O)cc3)C2=O)cc1`?
KCNQ2 pot: 0.29; KCNQ2 pot baseline: 0.11

What do the screens show for `O=C(O)CNC(=O)CC1S/C(=N/N=C2\CSC(=O)N2)NC1=O` (configuration not stated)?
KCNQ2 pot: 0.26; KCNQ2 pot baseline: -0.66

How did c1ccc(NC2=Nc3cccc4cccc2c34)cc1 do in these assays?
KCNQ2 pot: 0.16; KCNQ2 pot baseline: 0.11

What do the screens show for `CSCCC(N=CC1=C(O)CC(C)(C)CC1=O)C(=O)O` (configuration not stated)?
KCNQ2 pot: 1.48; KCNQ2 pot baseline: 0.13

What do the screens show for `CCOC(=O)C1(CCCc2ccccc2)CCN(CC(O)CO)CC1` (configuration not stated)?
KCNQ2 pot: 0.12; KCNQ2 pot baseline: -1.52

How did COc1ccccc1CNC(=O)CSc1nc(C)cs1 do in these assays?
KCNQ2 pot: 0.58; KCNQ2 pot baseline: -0.04

How did CSc1cc(N2CCOCC2)nc(-c2ccccc2Cl)n1 do in these assays?
KCNQ2 pot: 0.01; KCNQ2 pot baseline: -1.1

Results for Cc1cc2c(nn1)CCc1nonc1-2 ?
KCNQ2 pot: 1.84; KCNQ2 pot baseline: 0.43

How did COc1ccccc1NC(=O)N(CCN1CCCC1)Cc1cc2cc(C)ccc2[nH]c1=O do in these assays?
KCNQ2 pot: 0.66; KCNQ2 pot baseline: -0.4

What do the screens show for `COc1ccc(/C=N/NC(=O)c2ccncc2)cc1CN1CCN(c2ccc(F)cc2)CC1`?
KCNQ2 pot: 0.19; KCNQ2 pot baseline: -1.94

Results for Cc1ccc(C)c(NC(=O)C(C)N2C(=O)c3ccccc3C2=O)c1 (configuration not stated) ?
KCNQ2 pot: 0.88; KCNQ2 pot baseline: -0.46

Results for CC1CCN(C(=O)c2[nH]cnc2C(=O)N[C@@H](C)C(=O)OC(C)(C)C)CC1 ?
KCNQ2 pot: 0.55; KCNQ2 pot baseline: -0.59

What do the screens show for `CCC(Sc1nc2ccccc2c(=O)n1CCN1CCOCC1)C(=O)NCc1cccnc1` (configuration not stated)?
KCNQ2 pot: 0.14; KCNQ2 pot baseline: -0.35

What do the screens show for `O=S(=O)(c1ccccc1)c1ccc(C(F)(F)F)cn1`?
KCNQ2 pot: 1.19; KCNQ2 pot baseline: -0.98

Results for O=C(N/N=C/c1cccc(NC(=O)c2ccc(Cl)cc2)c1)c1ccc(O)cc1 ?
KCNQ2 pot: 0.05; KCNQ2 pot baseline: -0.29

Results for Cc1ccc(CCNC(=O)c2ccc3nc4ccccc4c(=O)n3c2)cc1 ?
KCNQ2 pot: 0.71; KCNQ2 pot baseline: -1.03

How did CN(C)S(=O)(=O)c1cccc(-c2cn3ccccc3n2)c1 do in these assays?
KCNQ2 pot: 1.36; KCNQ2 pot baseline: -1.66

Results for CN1CCN(C2=NC(=O)/C(=C/c3ccccc3OS(=O)(=O)c3ccccc3)S2)CC1 ?
KCNQ2 pot: 1.15; KCNQ2 pot baseline: -0.57

Results for CNC(=S)NNS(=O)(=O)c1ccc(OC)cc1OC ?
KCNQ2 pot: 0.69; KCNQ2 pot baseline: -0.04

Results for COc1ccc(N(CC(=O)NCc2ccccc2C)S(=O)(=O)c2ccc(C)cc2)cc1OC ?
KCNQ2 pot: 0.05; KCNQ2 pot baseline: 0.52

Results for O=C1NC2(CCCCC2)C(=O)N1c1ccccc1 ?
KCNQ2 pot: 0.14; KCNQ2 pot baseline: -1.68

How did COc1cccc(/C=N/NC(=O)CNC(=O)c2ccc(S(=O)(=O)N3CCOCC3)cc2)c1OC do in these assays?
KCNQ2 pot: 0.44; KCNQ2 pot baseline: 1.37

Results for CC(=O)c1cc2c(O)c(O)ccc2o1 ?
KCNQ2 pot: 0.11; KCNQ2 pot baseline: 1.77

What do the screens show for `Cc1cc(C)n(CCc2nc(-c3ccc(F)cc3)cs2)n1`?
KCNQ2 pot: 0.5; KCNQ2 pot baseline: 0.19

What do the screens show for `Cc1cc(C)c(S(=O)(=O)Nc2ccc[nH]c2=O)c(C)c1`?
KCNQ2 pot: 0.87; KCNQ2 pot baseline: -0.33

How did COCCNC(=O)c1c[nH]c2ccc(S(=O)(=O)N(C)c3ccc(C)c(C)c3)cc2c1=O do in these assays?
KCNQ2 pot: 0.32; KCNQ2 pot baseline: 0.12

How did Nc1nnnn1/N=C/c1ccc(O)cc1 do in these assays?
KCNQ2 pot: 0.4; KCNQ2 pot baseline: -0.31

How did O=C(Nc1ccc(F)cc1F)N1CCN(CCc2ccccc2)CC1 do in these assays?
KCNQ2 pot: 0.68; KCNQ2 pot baseline: 1.6

What do the screens show for `Cc1ccc(CSc2nnc(C)c(=O)n2N)cc1`?
KCNQ2 pot: 1.91; KCNQ2 pot baseline: -0.75

Results for NC(=O)c1ccccc1NC(=O)Nc1ccc(F)c(Cl)c1 ?
KCNQ2 pot: 0.26; KCNQ2 pot baseline: -0.13

Results for CN(Cc1c(F)cccc1Cl)C(=O)c1ccc2ccccc2n1 ?
KCNQ2 pot: 0.62; KCNQ2 pot baseline: -0.09

What do the screens show for `Nc1cc[n+](CC(=O)c2ccc3c(c2)OCCO3)cc1`?
KCNQ2 pot: 0.27; KCNQ2 pot baseline: -0.16

What do the screens show for `COc1ccc(S(=O)(=O)N2CCCCC2)cc1C(=O)N1CCCC1`?
KCNQ2 pot: 1.63; KCNQ2 pot baseline: -1.68

How did O=C(OCc1nnc(-c2ccccc2)o1)c1ccc(-n2cnnn2)cc1 do in these assays?
KCNQ2 pot: 0.35; KCNQ2 pot baseline: 3.14

Results for Cc1ccc(N=Cc2cc(Cc3ccccc3Cl)cc([N+](=O)[O-])c2O)c(O)c1 ?
KCNQ2 pot: 2.39; KCNQ2 pot baseline: -0.08

How did CCN(C(=O)CSc1nnc(Nc2cccc(C)c2C)s1)C1CCS(=O)(=O)C1 (configuration not stated) do in these assays?
KCNQ2 pot: 0.31; KCNQ2 pot baseline: -0.52

A draw from above in order of length of the SMILES, rising.
Results for NC(=O)c1ccccc1NC(=O)Nc1ccc(F)c(Cl)c1 ?
KCNQ2 pot: 0.26; KCNQ2 pot baseline: -0.13

Results for CN(Cc1c(F)cccc1Cl)C(=O)c1ccc2ccccc2n1 ?
KCNQ2 pot: 0.62; KCNQ2 pot baseline: -0.09

How did O=C(Nc1ccc(F)cc1F)N1CCN(CCc2ccccc2)CC1 do in these assays?
KCNQ2 pot: 0.68; KCNQ2 pot baseline: 1.6

What do the screens show for `Cc1cc(C)c(S(=O)(=O)Nc2ccc[nH]c2=O)c(C)c1`?
KCNQ2 pot: 0.87; KCNQ2 pot baseline: -0.33

How did CCN(C(=O)CSc1nnc(Nc2cccc(C)c2C)s1)C1CCS(=O)(=O)C1 (configuration not stated) do in these assays?
KCNQ2 pot: 0.31; KCNQ2 pot baseline: -0.52

How did COCCNC(=O)c1c[nH]c2ccc(S(=O)(=O)N(C)c3ccc(C)c(C)c3)cc2c1=O do in these assays?
KCNQ2 pot: 0.32; KCNQ2 pot baseline: 0.12

(more compounds)
How did CCCn1ncc(OC)c(Cl)c1=O do in these assays?
KCNQ2 pot: 0.62; KCNQ2 pot baseline: -1.27

Results for CC(N)c1ccc(Cl)cc1Cl (configuration not stated) ?
KCNQ2 pot: 0.01; KCNQ2 pot baseline: 0.08

How did Cc1cccc(C(=O)Nc2cccc(NC(=O)c3ccccc3)c2)c1 do in these assays?
KCNQ2 pot: 1.27; KCNQ2 pot baseline: -1.94

What do the screens show for `COc1ccc(S(=O)(=O)NC2CC2)cc1Br`?
KCNQ2 pot: 1.79; KCNQ2 pot baseline: -0.14

What do the screens show for `O=C(CSc1ccc2nnc(-c3cccnc3)n2n1)Nc1ccccc1C(F)(F)F`?
KCNQ2 pot: 0.23; KCNQ2 pot baseline: -0.64

Results for CC1(C)CC(=O)C2=C(C1)N=C1SCCC(=O)N1C2c1ccccc1 (configuration not stated) ?
KCNQ2 pot: 0.23; KCNQ2 pot baseline: 0.64

Results for CN(C)N=Nc1nc2c(c(=O)n(C)c(=O)n2C)n1CC1CO1 (configuration not stated) ?
KCNQ2 pot: 1.61; KCNQ2 pot baseline: 0.35

Results for CCOC(=O)c1[nH]c2ccc(OC)cc2c1NC(=S)N1CCN(C(=O)OCC)CC1 ?
KCNQ2 pot: 1.62; KCNQ2 pot baseline: -0.58

What do the screens show for `CN(C)C(CNC(=S)Nc1ccc(Cl)cc1)c1cccnc1` (configuration not stated)?
KCNQ2 pot: 0.83; KCNQ2 pot baseline: -1.15

What do the screens show for `CC(=O)Nc1cccc(-c2cn3ccc(C)cc3n2)c1`?
KCNQ2 pot: 0.03; KCNQ2 pot baseline: 0.55

Results for CCOC(=O)Nc1sc(NS(=O)(=O)c2ccccc2)nc1C ?
KCNQ2 pot: 0.22; KCNQ2 pot baseline: -0.91

What do the screens show for `Cc1cc(Oc2ccccc2)nc(OCC#N)n1`?
KCNQ2 pot: 0.25; KCNQ2 pot baseline: 0.02

Results for N#Cc1c(N)nc(N)nc1Nc1ccc(Br)cc1 ?
KCNQ2 pot: 1.57; KCNQ2 pot baseline: 1.02

How did Cc1cc(NC(=O)Cn2nnc(-c3ccccc3NC(=O)c3ccccc3F)n2)no1 do in these assays?
KCNQ2 pot: 0.96; KCNQ2 pot baseline: 0.66

How did CCCCNc1nc2ccccc2n1CC(=O)N1CCc2ccccc2C1 do in these assays?
KCNQ2 pot: 0.28; KCNQ2 pot baseline: -1.49

How did CCCCCn1c(N(C)Cc2ccccc2)nc2c1c(=O)[nH]c(=O)n2C do in these assays?
KCNQ2 pot: 0.49; KCNQ2 pot baseline: -2.38

How did CC(=O)Nc1cccc(/C(C)=N/Nc2nc3ccccc3s2)c1 do in these assays?
KCNQ2 pot: 2.17; KCNQ2 pot baseline: -1.98

Results for CC(C)(C)NC(=O)CN(C(=O)CS(=O)CC(=O)Nc1ccc(F)cc1)c1ccc(Cl)cc1 (configuration not stated) ?
KCNQ2 pot: 0.67; KCNQ2 pot baseline: 1.27

What do the screens show for `CSc1nc(-c2ccc(F)cc2)cc(=O)[nH]1`?
KCNQ2 pot: 0.43; KCNQ2 pot baseline: 0.61

What do the screens show for `COc1cccc2sc(NNC(=O)c3nc4ccccc4s3)nc12`?
KCNQ2 pot: 7.2*; KCNQ2 pot baseline: -1.7*

Results for Cc1ccc(N=C2NC(=O)/C(=C/c3cccn3C)S2)cc1C ?
KCNQ2 pot: 0.1; KCNQ2 pot baseline: -0.94

How did CC(=O)CSc1ncnc2c1cnn2-c1ccccc1 do in these assays?
KCNQ2 pot: 1.22; KCNQ2 pot baseline: -0.67

Results for CCCCNC(=S)NNC(=O)c1c(C)nc2ccccn12 ?
KCNQ2 pot: 0.59; KCNQ2 pot baseline: -0.96

How did CC1CN(c2ccc([N+](=O)[O-])cc2C#N)CC(C)O1 (configuration not stated) do in these assays?
KCNQ2 pot: 0.27; KCNQ2 pot baseline: 1.71

What do the screens show for `Cc1sc(NC(=O)C2CC(Cl)=CCC2C(=O)O)c(C#N)c1C` (configuration not stated)?
KCNQ2 pot: 0.52; KCNQ2 pot baseline: 0.48

What do the screens show for `Cc1ccc(S(=O)(=O)N2CCN(C(=O)COC(=O)CCOc3ccc(C(C)(C)C)cc3)CC2)cc1`?
KCNQ2 pot: 1.84; KCNQ2 pot baseline: 0.75

Results for Oc1ccccc1Oc1ncc(Br)c(Cl)n1 ?
KCNQ2 pot: 0.26; KCNQ2 pot baseline: -0.18

Results for COC(c1ccccc1)c1nnc(CCC(=O)N2CCN(CCOc3ccccc3)CC2)o1 (configuration not stated) ?
KCNQ2 pot: 0.67; KCNQ2 pot baseline: 0.58

How did CCOc1ccc(Cc2nnc(SCC(=O)Nc3ccccc3)n(N)c2=O)cc1 do in these assays?
KCNQ2 pot: 1.54; KCNQ2 pot baseline: -1.87

Results for COCCn1c(C23CC4CC(CC(C4)C2)C3)n[nH]c1=S ?
KCNQ2 pot: 0.37; KCNQ2 pot baseline: 1.24

Random excerpt: 2 compounds from above, in no set order.
How did CCOc1ccc(Cc2nnc(SCC(=O)Nc3ccccc3)n(N)c2=O)cc1 do in these assays?
KCNQ2 pot: 1.54; KCNQ2 pot baseline: -1.87

Results for Oc1ccccc1Oc1ncc(Br)c(Cl)n1 ?
KCNQ2 pot: 0.26; KCNQ2 pot baseline: -0.18
